Screening data deposited in PubChem by National Center for Advancing Translational Sciences (NCATS).
VACV mCherry inh: inhibitors of vaccinia virus infection (mCherry reporter signal); AID 720579; Potency, µM (titrated, usually from 36.5 µM), without a hit: at the highest dose activity change, negative = inhibition, actives largely listed as inhibitors; 310,000 compounds, 0.63% hits; Vaccinia virus mCherry reporter infection, fluorescence; about a quarter of the inactives have no number; active = well fitted inhibition curve with a large enough effect; inconclusive = small, poorly fitted or top-dose-only effect; inactive = no such curve, though single readings can be large or run the other way; tested in A549 cells; also: nearly all actives have a fitted effect of over 35% in size; inactives centre near -10
Vaccinia Venus: inhibitors of vaccinia virus (Venus reporter) | Vaccinia virus Venus reporter expression, fluorescence | Potency, µM (doses to about 36.5 µM), for inactives: at the top dose activity change, negative = inhibition, actives largely listed as inhibitors | 330,000 compounds, 0.46% hits; active means well fitted inhibition curve with a large enough effect; inconclusive means small, poorly fitted or top-dose-only effect; inactive means no such curve, though single readings can be large or run the other way; tested in A549 cells; also: nearly all actives have a fitted effect of over 30% in size; inactives centre near -10
* = called active by the depositor; i = inactive; ? = inconclusive; . = no result given; & = joins results of further samples; [ ] = remark or other dose. % is scaled to controls: 0 for no effect and ±100 for the full control effect; potency is read from the fitted curve at half-maximal effect. No enrichment for hits; about 0.87% have a hit in one of these screens.

Start of the data: the first 2 entries (preview)
SMILES | VACV mCherry inh | Vaccinia Venus
Cc1cc(OCCCn2ccnc2)ccc1[N+](=O)[O-] | -11% | -11%
O=C(Cn1nnc(N2CCCC2)n1)N/N=C/c1ccc(Cl)cc1 | i | -23%

The listing, repeating the preview:
SMILES | VACV mCherry inh | Vaccinia Venus
Cc1cc(OCCCn2ccnc2)ccc1[N+](=O)[O-] | -11% | -11%
O=C(Cn1nnc(N2CCCC2)n1)N/N=C/c1ccc(Cl)cc1 | i | -23%
c1ccc2c(c1)nnn2Cc1nnc2sc(-c3ccc4c(c3)OCCO4)nn12 | -15% | 1%
CC(C)NC(=O)C(c1ccccc1)N1Cc2ccccc2C1=O (stereo not drawn) | i | -14%
O=S(=O)(c1ccc(Br)cc1)N1CCCc2ccccc21 | -25% | -21%
COc1cc(CC2(CCc3ccncc3)C(=O)N(C)C(=O)N(C)C2=O)cc(OC)c1OC | -4% | -11%
Cn1c(=O)c2cn(Cc3ccc(Cl)cc3)cc2n(C)c1=O | ? | -25%
COc1ccc2c(c1)c(=O)c(C(=O)O)c(-c1ccc3c(c1)OCO3)n2C | -10% | -10%
C=CCOc1cccn2c(N(C)C(=O)c3ccncc3)c(CC)nc12 | 6% | -7%
O=C(N/N=C(\c1ccccc1)c1cccnc1)c1cccc(F)c1 | 3.2µM* | ?
Cc1cc(C(=O)NC(C)C2CCCO2)no1 (stereo not drawn) | -18% | -13%
COCCn1c(COc2ccc(Cl)cc2)nnc1SCC(N)=O | -10% | -7%
Cc1ccc(OCC(=O)Nc2ccc3c(c2)C(=O)N(CCC(=O)O)C3=O)cc1 | -15% | -7%
NC(=S)Nc1cnc2ccccc2c1 | . | -12%
COc1ccc(CCNC(=O)c2cc(C(=O)c3cc(Cl)ccc3O)cn(CCc3ccc(OC)cc3)c2=O)cc1 | i | -4%
COc1ccc(Cl)cc1C(=O)NNC(=S)NC1CCCCC1 | -6%[7.34 µM] | -11%[7.34 µM]
CCOC(=O)C1=C(N)N(c2ccc(N3CCCCC3)cc2)C(=O)C1 | -25% | -14%
Cc1c(Cl)cccc1-n1nnc(-c2nc(-c3ccc4c(c3)OCO4)no2)c1C | -14% | -21%
O=C(Nc1ccc([N+](=O)[O-])cc1)N1CCCCCC1 | i | -7%
CCN(CC)CCNC(=O)c1cn(CC)c2ccc(S(=O)(=O)N(C)C3CCCCC3)cc2c1=O | -12% | -9%
CC(C)(C)NS(=O)(=O)c1ccc(C(=O)Nc2ccc3c(c2)OCO3)cc1 | 20% | -11%
Cc1ccc2[nH]c(C)c(CC(=O)O)c2c1 | i | -4%
CC(=O)N1CCN(C(=O)c2ccc3c(c2)S(=O)(=O)c2ccccc2C3=O)CC1 | ? | -7%
Cc1ccc(C)c(-n2c(SCC(N)=O)nnc2-c2ccccn2)c1 | i | -15%
C=C[C@]1(C)CC(=O)[C@@]2(O)[C@@]3(C)C(O)CCC(C)(C)C3C(O)C(OC(C)=O)[C@@]2(C)O1 (stereo partly drawn) | -12% | ?
(more compounds)
SMILES | VACV mCherry inh | Vaccinia Venus
CCC1(C2CCN(Cc3ccoc3)CC2)NC(=O)N(CC2COc3ccccc3O2)C1=O (stereo not drawn) | i | -7%
CCOc1cc(C=O)ccc1OCC(N)=O | i | 3%
COc1cccc(C2C3(C#N)C(N)=NC(OC)(OC)C23C#N)c1 (stereo not drawn) | -15% | -4%
COc1cc(C(=O)Oc2c(CN3CCOCC3)cc(Cl)c3cccnc23)cc(OC)c1OC | ? | ?
CN(CCCC(=O)Nc1ccc(OC(F)F)cc1)S(=O)(=O)c1ccc(F)cc1 | -20% | -13%
CCC(C)[C@H](NC(=O)C1CC(=O)N(c2ccc3c(c2)OCCO3)C1)C(=O)N1CCCCC1 (stereo partly drawn) | -17% | -4%
COc1ccccc1NC(=O)CNC(=O)c1ccc(F)cc1 | . | -12%
Oc1ccc(Br)cc1-c1ccnn1-c1ccccc1 | ? | ?
O=C(Nc1ccccc1C(=O)N1CCOCC1)c1ccncc1 | . | -7%
COC(=O)c1cc(OC)ccc1-c1ccc(OC)cc1 | -23% | -20%
COc1ccc(NC(C(=O)Nc2cccc(C(C)=O)c2)c2ccccc2)cc1 (stereo not drawn) | -2% | -8%
Cc1nc(NCCCN2CCOCC2)c2cnn(-c3ccccc3)c2n1 | -5% | -3%
COc1ccc(NC(=O)COC(=O)c2ccc3c(c2)OCCO3)cc1 | i | -11%
Cc1nnc(NC(=O)C(=O)c2cc(C)n(-c3ccc(C)c(C)c3)c2C)s1 | -19% | -8%
Cc1cccc(C2c3[nH]c4ccccc4c3CCN2C(=O)Cc2nc(-c3ccccc3)n[nH]2)n1 (stereo not drawn) | -28% | -18%
c1ccc(CN2C3=NCCCN3c3ccccc32)cc1 | . | -20%
COc1cccc(C2=NOC(C(=O)NCc3ccccc3)C2)c1 (stereo not drawn) | -4% | -25%
O=C1CCCC(=O)N1c1ccc(N2CCN(c3ccccc3)CC2)c([N+](=O)[O-])c1 | -11% | -11%
Cc1ccsc1C(=O)OCC(=O)N1CCN(C(=O)c2ccco2)CC1 | -19% | -14%
CC(C)(C)c1ccc(S(=O)(=O)N2CCN(c3nc(-c4cccs4)nc4ccccc34)CC2)cc1 | -11%&-11% | -7%&-15%
CC(C)CCn1c(-c2nonc2N)nc2ccccc21 | ? | -30%
Cc1cccc(N2CCN(c3ccc(C(=O)O)cc3NC(=O)c3cccc(Cl)c3)CC2C)c1 (stereo not drawn) | -8% | -2%
COc1cccc(CNC(=O)c2sc3nc(C)cc(C)c3c2-n2cccc2)c1OC | -22% | -14%
COc1ccc(OC)c2[nH]c(=O)c(CCNC(=O)c3ccc4c(c3)OCO4)cc12 | i | -17%
CC1=C(C(N)=O)C(c2ccccc2F)n2nc(CCCO)nc2N1 (stereo not drawn) | -15% | -12%
Going on with the list:
SMILES | VACV mCherry inh | Vaccinia Venus
CC(=O)C(=Cc1ccc(C(=O)O)cc1)C(C)=O | -20% | -9%
OC(COc1ccc2c(c1)OCO2)CN1CCN(c2ccccc2)CC1 (stereo not drawn) | -2% | -7%
O=C(Cc1ccc(F)cc1)N/N=C/c1ccc2c(c1)OCO2 | i | -8%
O=C(OCC1CCNCC1)c1ccc2c(c1)OCO2 | 0% | -7%
COc1ccc(C)cc1NC(=O)C1CCCN1S(=O)(=O)c1ccc2c(c1)CCC(=O)N2 (stereo not drawn) | -4% | -10%
COc1ccc(CNC(=O)CN(C(=O)CCC(=O)Nc2ccccn2)c2ccc(C)cc2)cc1 | -19% | -13%
COc1ccc(CNC(=O)C(CC(C)C)N2Cc3ccccc3C2=O)cc1 (stereo not drawn) | -15% | -5%
CC(C)CC(N)c1csc(Nc2ccc(C(=O)NCCCO)cn2)n1 (stereo not drawn) | -14% | -9%
CC1CC1C(=O)Nc1ccc(S(=O)(=O)N2CCCCC2)cc1 (stereo not drawn) | -16% | -14%
CC(NCc1ccccc1OC1CCCC1)c1ccccc1 (stereo not drawn) | -28% | -22%
Cc1ccc(C2=NOC(=O)/C2=C\C=C\c2ccccc2)cc1 | -7% | 9%
CN(C(=O)COC(=O)c1ccc(S(=O)(=O)N2CCCC2)cc1)c1ccccc1 | -2% | 0%
CC(NC(N)=O)C(=O)NCC(=O)OCc1ccccc1 (stereo not drawn) | i | -2%
COc1cc(/C=N/NC(=O)CN(Cc2ccccc2)S(=O)(=O)c2ccc3c(c2)OCCO3)ccc1O | -8% | -10%
COc1ccc(NC(=O)c2c(C)oc3ccc(O)c(CN4CCCCCC4)c23)cc1Cl | ? | -30%
COc1ccc2c(c1)Cc1sc(NC(=O)c3ccccc3Br)nc1-2 | 11µM* | ?
COc1ccccc1NC(=O)c1cc(S(=O)(=O)N2CCN(c3ccccc3Cl)CC2)ccc1F | -5% | -10%
OC(CNC1CCCCCC1)COc1cccc2ccccc12 (stereo not drawn) | -22% | ?
Cn1c(C(=O)O)c(CC(=O)N2CCC(Cc3ccccc3)CC2)c2ccccc21 | -2% | -10%
COc1ccc(NC(=O)CCNC(=O)N2CC(=O)Nc3ccccc32)c(OC)c1 | -9% | -14%
CC(C)[C@H](NC(=O)c1ccccc1)C(=O)NC1=NCCS1 | -1% | -14%
COc1ccc(C(C)C)cc1S(=O)(=O)N1CC(C)OC(C)C1 (stereo not drawn) | -6% | -15%
CCn1c(SCC(=O)Nc2ccc(C)c(C)c2)nnc1-c1nonc1NC(C)=O | -11% | -11%
NC(Cc1ccc(N(CCCl)CCCl)cc1)C(=O)O (stereo not drawn) | i | -11%&-8%
COc1ccc(C(=O)OCC(=O)Nc2ccc(F)c(F)c2)cc1OC | i | -13%

Arranged by formula weight (ascending): part of the list above.
SMILES | VACV mCherry inh | Vaccinia Venus
CC(=O)C(=Cc1ccc(C(=O)O)cc1)C(C)=O | -20% | -9%
O=C(OCC1CCNCC1)c1ccc2c(c1)OCO2 | 0% | -7%
CC(NC(N)=O)C(=O)NCC(=O)OCc1ccccc1 (stereo not drawn) | i | -2%
Cc1ccc(C2=NOC(=O)/C2=C\C=C\c2ccccc2)cc1 | -7% | 9%
CC(NCc1ccccc1OC1CCCC1)c1ccccc1 (stereo not drawn) | -28% | -22%
O=C(Cc1ccc(F)cc1)N/N=C/c1ccc2c(c1)OCO2 | i | -8%
CC(C)[C@H](NC(=O)c1ccccc1)C(=O)NC1=NCCS1 | -1% | -14%
OC(CNC1CCCCCC1)COc1cccc2ccccc12 (stereo not drawn) | -22% | ?
CC1CC1C(=O)Nc1ccc(S(=O)(=O)N2CCCCC2)cc1 (stereo not drawn) | -16% | -14%
COc1ccc(C(C)C)cc1S(=O)(=O)N1CC(C)OC(C)C1 (stereo not drawn) | -6% | -15%
COc1ccc(C(=O)OCC(=O)Nc2ccc(F)c(F)c2)cc1OC | i | -13%
OC(COc1ccc2c(c1)OCO2)CN1CCN(c2ccccc2)CC1 (stereo not drawn) | -2% | -7%
CC(C)CC(N)c1csc(Nc2ccc(C(=O)NCCCO)cn2)n1 (stereo not drawn) | -14% | -9%
COc1ccc(CNC(=O)C(CC(C)C)N2Cc3ccccc3C2=O)cc1 (stereo not drawn) | -15% | -5%
Cn1c(C(=O)O)c(CC(=O)N2CCC(Cc3ccccc3)CC2)c2ccccc21 | -2% | -10%
COc1ccc2c(c1)Cc1sc(NC(=O)c3ccccc3Br)nc1-2 | 11µM* | ?
CCn1c(SCC(=O)Nc2ccc(C)c(C)c2)nnc1-c1nonc1NC(C)=O | -11% | -11%
COc1ccc(C)cc1NC(=O)C1CCCN1S(=O)(=O)c1ccc2c(c1)CCC(=O)N2 (stereo not drawn) | -4% | -10%
COc1ccccc1NC(=O)c1cc(S(=O)(=O)N2CCN(c3ccccc3Cl)CC2)ccc1F | -5% | -10%
COc1cc(/C=N/NC(=O)CN(Cc2ccccc2)S(=O)(=O)c2ccc3c(c2)OCCO3)ccc1O | -8% | -10%

Continuation:
SMILES | VACV mCherry inh | Vaccinia Venus
CC(C)Nc1nc2cccnc2s1 | -4%[7.34 µM] | -5%[7.34 µM]
COCCN(C(=O)COC(=O)C1=COCCO1)c1c(N)n(Cc2ccccc2)c(=O)[nH]c1=O | i | -13%
NC(=O)c1cccc(S(=O)(=O)N2CC(c3ccccc3)CC2=O)c1 (stereo not drawn) | -11% | -4%
Cc1occc1C(=O)Nc1nn[nH]n1 | . | -14%
COc1ccccc1Nc1nc(N)nc(CN2CCOCC2)n1 | i | -5%
Cc1ccc(S(=O)(=O)N2CCOCC2)cc1NC(=O)CNCc1ccccn1 | -19% | -22%
Cn1c(=O)c2c(nc(-n3ccnc3)n2Cc2ccc(Cl)cc2Cl)n(C)c1=O | -28% | -18%
COc1ccccc1NC(=O)c1cc2c(=O)oc3ccc(C)cc3c2s1 | -19%[7.34 µM] | -12%[7.34 µM]
COc1ccc(S(=O)(=O)N(C)c2ccc(C(=O)N3CCN(C)CC3)cc2)cc1 | -17% | -6%
O=C(COC(=O)CCN1C(=O)/C(=C\C=C\c2ccccc2)SC1=S)Nc1ccc(Br)cc1 | -26% | -1%
COc1ccc(OC)c(/C=C(\C#N)c2nc(-c3ccc(F)cc3)cs2)c1 | -10%[7.34 µM] | -2%[7.34 µM]
COc1cc(SC)ccc1C(=O)OCc1nc2ccsc2c(=O)[nH]1 | -2% | -15%
CCCCCCOc1ccc(OCC(O)CN2C(=O)NC(C)(C)C2=O)cc1 (stereo not drawn) | -11% | -7%
O=C(NCc1ccc(F)c(F)c1)C1Cc2c(-c3ccc4c(c3)OCO4)ccnc2O1 (stereo not drawn) | i | -12%
CC(CCC(=O)O)C1CCC2C3C(O)CC4CC(O)CCC4(C)C3CC(O)C12C (stereo not drawn) | i | -12%
CCOc1ccc(NC(=O)c2ccc(Cl)c(NC(=O)c3ccco3)c2)cc1 | -9% | -2%
COc1ccc(CC(=O)NNC(=O)c2ccccn2)cc1 | -1% | 4%
CN(C(=O)c1ccncc1)C1CC(C)(C)N(O)C(C)(C)C1 | . | -4%
CC(C)c1nc(SCC(=O)NC2CCCC2)c2c(=O)n(C)c(=O)n(C)c2n1 | -5% | -10%
COc1ccccc1N(CC(=O)NC1CCCCC1)C(=O)CNC(=O)c1cccs1 | 3% | 2%
CC1CCCCC12NC(=O)N(Cn1nnc3ccccc3c1=O)C2=O (stereo not drawn) | . | -1%
